# YopH inh: YopH tyrosine phosphatase inhibitors, primary screen, biochemical, fluorescence Ex485/Em525 | inhibition, %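 (about 10 µM by stock and volumes)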 | actives 0.16% (n = 140,000) | AID 898, 2007;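 active = inhibition of 50% or more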;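 note: controls were vehicle for no effect and minimum signal wells for full effect; inactives centre near -20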
# Arbovirus inh: antivirals against arbovirus infection, primary screen, cell-based, full library, 10K replicate subset | inhibition, % at 10 µM | arbovirus infection cell-based antiviral screen | actives 0.37% (n = 200,000) | AID 1251, 2008;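 active = inhibition from about 30%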;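 note: bluetongue infection of BSR cells; cell survival read as ATP light after 72 h; 0% = infected wells without compound and 100% = uninfected wells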
# Mtb growth: M. tuberculosis H37Rv growth inhibitors, H37Rv strain (AID 1626). actives 0.95% (n = 220,000). M. tuberculosis H37Rv growth inhibition; higher % means a stronger effect. one-dose inhibition, % at 10 µM; IC50 in µM for titrated hits;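 active = confirmed in a dose series; inconclusive = inhibition above 80% but not taken into the dose series; inactive = below 80% or under 30% at every dose of the series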;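 note: bacteria incubated seven days before Alamar blue readout; 0% = bacteria only wells and 100% = bacteria with antibiotic wells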
# Mtb betalactam: beta-lactam sensitization of Mtb H37Rv, H37Rv; M. tuberculosis H37Rv growth with meropenem, percent inhibition; hits of this screen are not shown here; inhibition, % at 25 µM; actives 0.27% (n = 330,000);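 active = about 74% or more and at least 40 points above the plate without the antibiotic, then above 30% in a dose series; inconclusive = first-round hits that could not be retested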;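 note: growth measured after seven days incubation then overnight dye step; 0% = bacteria only wells and 100% = bacteria with antibiotic; twin plates without the antibiotic show which effects depend on it; some results filed as inactive read as strong as hits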
# RecA splice inh: Mtb RecA intein splicing inhibitors, primary screen, biochemical, fluorescence, HTS | cell-free RecA intein splicing | inhibition, %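 (about 9 µM by stock and volumes)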 | actives 0.75% (n = 290,000); in the data active = inhibition above about 30%; inconclusive = no clear call, values can overlap the other calls;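 note: 0% = vehicle wells and 100% = reference inhibitor control wells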
# Target sequence (P9WHJ3 whole entry, looked up, canonical isoform): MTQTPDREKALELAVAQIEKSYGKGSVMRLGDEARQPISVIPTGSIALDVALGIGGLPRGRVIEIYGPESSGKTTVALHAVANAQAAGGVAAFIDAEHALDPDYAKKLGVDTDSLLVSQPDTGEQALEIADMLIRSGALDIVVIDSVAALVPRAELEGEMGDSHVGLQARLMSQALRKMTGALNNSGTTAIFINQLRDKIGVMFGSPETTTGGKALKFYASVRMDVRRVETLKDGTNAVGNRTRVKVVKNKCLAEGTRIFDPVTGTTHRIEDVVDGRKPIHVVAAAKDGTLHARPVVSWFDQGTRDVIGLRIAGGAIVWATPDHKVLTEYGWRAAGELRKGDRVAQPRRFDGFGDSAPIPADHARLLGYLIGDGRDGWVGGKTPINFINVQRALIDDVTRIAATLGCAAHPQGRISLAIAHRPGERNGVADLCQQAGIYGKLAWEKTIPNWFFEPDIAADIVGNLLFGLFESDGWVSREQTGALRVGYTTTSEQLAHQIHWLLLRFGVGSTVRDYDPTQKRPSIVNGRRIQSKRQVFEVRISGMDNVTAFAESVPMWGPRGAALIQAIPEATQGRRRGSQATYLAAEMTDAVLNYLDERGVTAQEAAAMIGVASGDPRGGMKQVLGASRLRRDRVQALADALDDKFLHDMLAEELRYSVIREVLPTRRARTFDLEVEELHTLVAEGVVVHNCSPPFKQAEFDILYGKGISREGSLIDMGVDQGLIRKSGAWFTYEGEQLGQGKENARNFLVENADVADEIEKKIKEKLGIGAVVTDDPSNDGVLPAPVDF
# Arbovirus inh repeat: recorded beside Arbovirus inh, whose call it bears; inhibition, %; measured here: 10K subset replicate screen; many hits read low in the repeat;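 first of two repeat runs on a subset; 0% = infected and 100% = uninfected wells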
# * hit, by the source's call; ? = inconclusive; . = no result given.
SMILES,YopH inh,Arbovirus inh,Mtb growth,Mtb betalactam,RecA splice inh,others
CCOC(=O)c1c[nH]c(=O)c(Br)c1O,-17.8,2.6,-10.7%,4.2,-1.3,
Cc1cc2occ(CC(=O)N(C)CC(=O)Nc3ccccc3Br)c2cc1C,.,.,.,-14.0,-0.8,
COc1ccc(N2C(=O)CC(Sc3ncccc3C(=O)O)C2=O)cc1 (centres undefined),-16.7,16.2,-4.4%,5.5,-0.5,
CCOC(=O)C1(Cc2cccc(OC)c2)CCCN(Cc2cnn(C)c2)C1 (centres undefined),.,-1.4,0.3%,-3.6,1.4,
CCC(C)(C)NC(=O)C(c1cccc(OC)c1OC)N(C(=O)CCC(=O)Nc1cc(C)on1)c1ccc2c(c1)OCCO2 (centres undefined),.,.,.,5.2,0.2,
CS(=O)(=O)N1CCN(CCN2C(=O)c3cccc4cccc(c34)C2=O)CC1,.,-1.5,0.9%,-7.2,-0.3,
O=C(COC(=O)c1ccccc1-n1cnnn1)c1ccc(F)c(F)c1,.,.,.,0.1,0.8,
NC(=O)c1nsc(C(=O)N(CC(=O)NC2CCCC2)Cc2ccc3c(c2)OCO3)c1N,.,5.1,-7.9%,0.6,-3.3,
Cc1c(NC(=O)CSc2nnnn2-c2ccc(O)cc2)c(=O)n(-c2ccccc2)n1C,-26.8,2.5,-3.8%,-3.0,.,
CS/C(N)=N/S(=O)(=O)c1ccc(NC(C)=O)cc1,.,.,6.6%,-1.1,-1.0,
C=CCNC(=O)CCCC(=O)NCC=C,-25.6,5.9,-7.5%,1.1,0.4,
O=C(NCCc1c[nH]c2ccccc12)/C(=C\c1cccs1)NC(=O)c1ccccc1,-14.2,-7.5,10.6%,0.2,4.3,
COc1ccc(/C(O)=C2/C(=O)C(=O)N(CC3CCCO3)C2c2ccc(OC)c(OC)c2)cc1 (centres undefined),-19.9,4.7,6.7%,-2.9,1.3,
O=C(CCC(=O)N(CC(=O)NC1CCCC1)Cc1cccs1)Nc1nccs1,.,0.8,-7.7%,7.7,-0.9,
COCCn1c(-c2ccc(Cl)cc2)cnc1SCC(=O)NCc1cccs1,-15.3,58.1*,4.3%,73.1,.,
COCCNC(=O)C(=O)Nc1cc2c3c(c1)C(C)C(=O)N3CCC2 (centres undefined),.,.,.,0.0,-3.8,
O=C(NC1CCN(Cc2ccccc2)CC1)c1cccc(Br)c1,.,.,.,-4.9,-0.3,
COc1ccc(-c2nc(C#N)c(NCCCN3CCOCC3)o2)cc1,-25.8,4.0,.,0.6,-0.1,Arbovirus inh repeat=5.0
Cc1cc(NC(=O)C(=O)NCCN2CCN(S(C)(=O)=O)CC2)ccc1Br,.,12.5,-4.8%,-6.3,-0.6,
COCCCNC(=O)Cn1c(=O)n(CC(=O)NCCc2ccc(OC)c(OC)c2)c(=O)c2sccc21,.,2.8,-1.6%,-4.0,-1.5,
CC(C)=C1C2CCC1C(C(=O)NCc1ccccc1)C2C(=O)O (centres undefined),-44.8,1.4,-6.3%,?,11.1,
C(=N\N(Cc1ccccc1)c1ccccc1)/c1ccco1,.,2.0,6.2%,-2.7,-1.5,
CCN(Cc1ccccc1)c1ccc(/C=C(\C#N)c2ccccn2)cc1,-17.7,3.9,32.8%,11.9,-24.7,
CCOC(=O)c1nn(-c2ccc(C)c(C)c2)cc1O,-31.4,5.7,68.7%,98.3,9.5,
NS(=O)(=O)c1ccc(CNC(=O)c2cc(-c3cccnc3)nc3ccccc23)cc1,.,.,.,23.4,-0.7,

# The listing continues:
SMILES,YopH inh,Arbovirus inh,Mtb growth,Mtb betalactam,RecA splice inh,others
CCC(=O)NC(c1ccc(C)cc1)c1cc([N+](=O)[O-])c2cccnc2c1O (centres undefined),-2.5,-26.1,-17.2%,7.8,4.6,
O=C(NNc1nc2c(F)cccc2s1)c1ccc(F)cc1,.,19.9,13.2%,25.9,-2.3,
CCOCCc1nnc(NC(=O)CCC2CCCCC2)s1,.,.,.,3.8,3.1,
CC(C)(C)C1=C(C#N)C(c2ccncc2)C(C#N)=C(N)O1 (centres undefined),-27.1,0.3,-4.0%,5.0,3.8,
COc1cccc(-c2nn(C)c3sc(C(=O)N4CCN(c5ccccn5)CC4)cc23)c1,-16.4,-3.1,60.0%,40.1,5.2,
CSc1ccc(CN(C)C(C)C(=O)Nc2ccc(F)c(F)c2F)cc1 (centres undefined),.,-2.2,-1.4%,0.3,5.0,
CC1(C)Cc2c(ccc3ccccc23)/C(=C/C#N)N1,-22.6,1.2,6.8%,9.2,.,
Cc1ccsc1CNn1cnnc1SCc1ccc(Cl)cc1,2.2,-0.6,-9.1%,-8.8,.,
CCc1ccc(Nc2nnc(SCC(=O)Nc3cccc(S(=O)(=O)NC4=NCCCCC4)c3)s2)cc1,5.1,-9.8,5.6%,1.1,5.7,
CCOc1ccc(Nc2nc(Cc3nnc(SCC(=O)NCC4CCCO4)n3C)cs2)cc1 (centres undefined),5.8,9.1,.,-0.4,3.0,
O=S1(=O)CCN(CCc2c[nH]c3ccccc23)CC1,.,0.7,3.0%,1.6,-3.7,
CCOC(=O)C1=C(N)OC(CCl)=C(C#N)C1c1ccsc1 (centres undefined),-33.4,3.9,4.9%,95.9,20.0,
Cn1c(=O)c2c(ncn2CC(=O)N2CCN(S(=O)(=O)c3ccccc3)CC2)n(C)c1=O,.,.,.,-13.3,1.0,
Cc1ccc(-n2c(SCC(=O)Nc3cc(S(=O)(=O)N4CCOCC4)ccc3Cl)nc3ccccc3c2=O)cc1,-18.9,-5.0,1.0%,-4.0,4.6,
c1ccc(-c2nc(-n3ccnc3)nc(-n3ccnc3)n2)cc1,-18.2,-21.2,3.0%,63.9,1.7,
COc1ccc([N+](=O)[O-])cc1NC(=O)c1ccccc1N(C)S(C)(=O)=O,.,-1.8,-9.0%,-0.7,-1.3,
O=C(Nc1ccncc1)Nc1ccc(F)c(Cl)c1,.,8.5,0.0%,-0.9,3.0,
Cc1ccc(-c2nn(-c3ccccc3)cc2NC(=O)CCl)cc1,.,-30.2,29.6µM*,99.2,29.3,
Cc1ccc(OC(=O)CCC(=O)Nc2ccc(S(=O)(=O)Nc3cc(C)on3)cc2)cc1,-28.0,12.2,-8.1%,-6.9,0.0,Arbovirus inh repeat=5.7
O=C(CN1C(=O)CCC1=O)Nc1ccc2c3c(cccc13)CC2,-28.5,-1.1,0.5%,0.4,3.8,
C/C(=N\NC(=O)c1c(Cl)cnn1C)c1cccc(NC(=O)COc2ccccc2)c1,-27.7,-2.6,8.6%,-1.4,-2.8,
O=C(CSc1nnc2ccc(-c3ccccn3)nn12)Nc1ccccc1F,.,.,.,1.8,-27.5,
O=C(Nc1ccccc1Cl)c1ccc2nsnc2c1,.,11.6,-4.5%,-7.8,-0.3,
CCc1nc(SCC(=O)NNC(=O)c2ccc(OC)cc2)c2ccccc2n1,.,-3.1,0.1%,-2.1,9.5,
COc1cc(C(=O)Nc2c(C(=O)O)[nH]c3ccc(C)cc23)cc(OC)c1OC,.,.,.,84.4,0.6,

# An excerpt from above in order of molecular weight, descending.
SMILES,YopH inh,Arbovirus inh,Mtb growth,Mtb betalactam,RecA splice inh,others
Cc1ccc(-n2c(SCC(=O)Nc3cc(S(=O)(=O)N4CCOCC4)ccc3Cl)nc3ccccc3c2=O)cc1,-18.9,-5.0,1.0%,-4.0,4.6,
CCOc1ccc(Nc2nc(Cc3nnc(SCC(=O)NCC4CCCO4)n3C)cs2)cc1 (centres undefined),5.8,9.1,.,-0.4,3.0,
Cn1c(=O)c2c(ncn2CC(=O)N2CCN(S(=O)(=O)c3ccccc3)CC2)n(C)c1=O,.,.,.,-13.3,1.0,
C/C(=N\NC(=O)c1c(Cl)cnn1C)c1cccc(NC(=O)COc2ccccc2)c1,-27.7,-2.6,8.6%,-1.4,-2.8,
Cc1ccsc1CNn1cnnc1SCc1ccc(Cl)cc1,2.2,-0.6,-9.1%,-8.8,.,
O=S1(=O)CCN(CCc2c[nH]c3ccccc23)CC1,.,0.7,3.0%,1.6,-3.7,
O=C(Nc1ccncc1)Nc1ccc(F)c(Cl)c1,.,8.5,0.0%,-0.9,3.0,

# The list continues:
SMILES,YopH inh,Arbovirus inh,Mtb growth,Mtb betalactam,RecA splice inh,others
CC(=O)NCCc1ccc(O)cc1,.,.,1.7%,-5.6,-2.9,
O=[N+]([O-])c1ccc(Oc2cccnc2)nc1,.,.,-5.1%,-10.6,0.0,
CCOc1cccc(N2C(=O)/C(=C/c3ccco3)C(=O)NC2=S)c1,.,.,.,-5.5,1.8,
O=C(COc1cc2oc(=O)c3c(c2cc1Cl)CCC3)Nc1ccccn1,.,.,.,1.2,-1.0,
O=C1CSC(=S)N1Cc1cccnc1,-34.0,-7.0,13.7%,99.3,10.5,Arbovirus inh repeat=-9.4
Cc1cc(C)c(C)c(S(=O)(=O)NC(C(=O)O)C(C)C)c1C (centres undefined),.,2.0,-6.4%,1.2,1.6,
COCC(=O)Nc1cc(C)cn(Cc2ccc(F)cc2)c1=O,.,.,.,-3.4,1.6,
COc1ccc([C@@H]2C[C@H](c3ccccc3)Oc3cc(C)cc(C)c32)cc1,.,.,5.4%,.,0.6,
O=C(NNc1ccc(Cl)cc1)c1c(F)cccc1Cl,.,.,75.5%,96.2,1.1,
COc1ccc(N2CCN(C(=O)CSc3nnc(-c4ccco4)n3C)CC2)cc1,.,2.2,3.8%,-6.7,1.4,
COc1cccc(Oc2ccc(S(=O)(=O)N3CCCC3)cc2[N+](=O)[O-])c1,.,.,.,9.0,-0.2,
COc1ccnc(Oc2ccc(F)cc2)c1C(=O)N/C=N/OCc1c(Cl)cccc1Cl,-12.5,-1.8,-4.0%,3.0,0.5,
CCCCn1c(NC(=O)c2ccccc2)nc2ccccc21,-33.1,-22.0,?,95.9,17.2,Arbovirus inh repeat=-10.8
CCOc1cccc(SCc2noc(C(=O)NCCOC)c2C(=O)O)c1,-36.6,1.4,0.2%,3.8,-2.3,
Cc1ccc(-c2noc(CNC(=O)c3ccc4c(c3)OCO4)n2)cc1,.,.,.,2.5,1.4,
O=C(COc1ccc(S(=O)(=O)N2CCCCC2)cc1)Nc1ccccc1F,.,.,.,3.4,0.3,
CCC(C)n1c(SCC(=O)NCc2ccco2)nnc1-c1cccc(S(=O)(=O)N2CCOCC2)c1 (centres undefined),8.8,-5.8,-3.9%,-4.2,9.7,
COc1ccc(C(C)=O)cc1CN1C(=O)NC(CC(C)C)C1=O (centres undefined),.,20.7,0.7%,-1.4,3.2,
COc1ccc(N(C(=O)CCC(=O)Nc2cc(C)on2)C(C(=O)NC2CCCC2)c2ccco2)cc1 (centres undefined),.,-1.9,6.2%,-10.8,-0.7,
CCS(=O)(=O)c1ccc2oc(SCC(=O)Nc3ccc(OC)c(OC)c3)nc2c1,.,4.3,0.4%,1.7,1.1,
O=C(NCc1ccco1)C1CC(c2cc(C(F)(F)F)cc(C(F)(F)F)c2)=NO1 (centres undefined),.,.,0.6%,0.4,-3.2,
COc1cccc(CNC(=O)c2ccccc2SCC(=O)N2CCCC2)c1,.,.,.,-10.5,1.4,
CCOC(=O)c1cnc(SCC(=O)OC)nc1N,.,3.0,77.4%,89.2,-2.0,
C1=CC2c3ccccc3NC(c3ccncc3)C2C1 (centres undefined),-11.6,-8.2,-4.4%,-2.6,29.5,
CC[C@H](C)[C@H](NC(=O)[C@H](Cc1ccc(O)cc1)NC(=O)[C@@H](N)C(C)C)C(=O)N[C@@H](Cc1cnc[nH]1)C(=O)N1CCC[C@H]1C(=O)N[C@@H](Cc1ccccc1)C(=O)O,-29.6,3.9,-9.2%,-6.4,5.4,

# The listing continues:
SMILES,YopH inh,Arbovirus inh,Mtb growth,Mtb betalactam,RecA splice inh,others
COC(=O)C1=C(c2cccc(OC)c2OC)C[C@@H]2CC[C@H]1N2C(=O)NCc1ccc(F)cc1,.,.,-3.5%,-6.3,3.2,
COc1ccccc1CC(=O)N1CCN(c2ccccc2F)CC1,.,.,.,-2.2,-0.3,
CN(CCCCCCN(C)Cc1ccccc1O)Cc1ccccc1O,.,.,.,-8.0,-0.4,
CCc1ccc(NC(=O)Cn2c(=O)c3cccn3c3ccccc32)cc1,.,.,.,-5.6,-3.8,
Cc1ccc(C2/C(=C(\O)c3ccc4c(c3)OCCO4)C(=O)C(=O)N2Cc2cccnc2)cc1 (centres undefined),.,.,.,-8.3,3.0,
Nn1cc(-c2ccccc2)nc1SCC(=O)NCC1CCCO1 (centres undefined),.,4.5,-9.0%,2.9,-2.3,
CCC(=O)N1CCN(c2cc(N3CCN(C)CC3)c(F)cc2[N+](=O)[O-])CC1,15.2,-7.8,-2.7%,-2.5,1.4,
O=C1c2ccccc2C(=O)c2c1cccc2N1CCCC1,-22.8,-11.7,66.6%,25.0,15.9,
CN1CCc2c(sc(N)c2C(=O)O)C1,.,1.0,0.3%,-1.6,-15.3,

# A portion of the library; count on the stated rates, not on these rows.
